PK Bst – alters activity of Bacillus stearothermophilus pyruvate kinase | partly purified Bacillus stearothermophilus pyruvate kinase, luminescence ATP production; ribose 5-phosphate activator present at AC10 | Potency, µM | actives 1.2% (n = 51,000) | AID 361; in the data active means potency below about 11 µM; inconclusive means mostly about 12 µM to 25 µM; inactive means weaker than that;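 the screen sought inhibitors and activators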;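 note: potency is the fitted concentration of half-maximal effect; scaled between full activation by ribose 5 phosphate and full inhibition by luteolin; about four in five hits inhibit and the cells do not say which; series up to 57 µM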
TsaE inh – displaces an ADP probe from E. coli YjeE (TsaE). P0AF67. Potency, µM. AID 605. purified YjeE, fluorescence polarisation of a bound ADP probe. actives 0.05% (n = 71,000); active = well fitted falling curve; inconclusive = weaker or top-dose-only fall, or a rising curve; inactive = flat or poorly fitted curve;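 note: top concentration of the series not given in the record; excess ADP was the control for the full effect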
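Purified YjeE (10 uM) with BODIPY Texas Red-labeled ADP probe (2 uM); compounds pin-transferred, 15 min at room temperature. Binding inhibition read as decreased fluorescence polarization; ADP titration as control.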
Numbers without * were called inactive; i = inactive; ? = inconclusive; . = not tested or not shown; & = joins results of further samples. A portion of the library; the hit share may differ from the screen's.

Screens in order: PK Bst, TsaE inh
Cn1c(NCc2ccccc2)nc2c1c(=O)n(Cc1ccccc1)c(=O)n2C
→ >25.6, .
CC1(C)CC(=O)C2=C(C1)Oc1ncn(Cc3ccco3)c(=N)c1C2c1ccccc1 (stereo not given)
→ >57, i
Cc1ccnc(NC(=O)COc2ccc3oc4c(c3c2)CCCC4)c1
→ >57, i
Cn1c(=O)c2c(SCC(=O)N3CCCc4ccccc43)nc(CC(C)(C)C)nc2n(C)c1=O
→ ., i
COC(=O)c1ccc(C#CC(NP(=O)(c2ccccc2)c2ccccc2)c2ccccc2)cc1 (stereo not given)
→ ., i
O=C1c2ccccc2C(=O)N1Cc1nc(-c2cccnc2)no1
→ >57, i
COC(=O)c1ccc(NC(=O)COc2ccccc2OC)cc1
→ ., i
COC(=O)c1ccc(CSc2nc3ccccc3s2)o1
→ i, i
O=C(OCC(=O)c1ccccc1Br)c1ccccn1
→ ., i
N[C@@H](CSCc1ccc(I)cc1)C(=O)O
→ ., i
CCn1c(=S)sc2c(=O)[nH]c(C)nc21
→ >57, i
Fc1cccc(Cl)c1CSc1nnnn1-c1ccc2c(c1)OCO2
→ ., i
Cc1cnc(C(=O)OCC(=O)c2csc(N3CCCCC3)n2)cn1
→ >57, i
CCn1c(Cc2ccccc2)nnc1SCC(=O)Nc1ccc2c(c1)OCO2
→ >57, i
CNc1nc(N2CCc3ccccc32)ncc1F
→ i, i
O=C(Nc1ccc(S(=O)(=O)Nc2nccs2)cc1)C1CCCCC1
→ ., i
O=C(NCc1ccccn1)C1CC(=O)N(C2CCCC2)C1 (stereo not given)
→ ., i
Cc1ccc(-c2noc(CCC(=O)Nc3cc(C)ccn3)n2)cc1
→ >57, i
Cn1c(=O)c2c(nc(SCCOc3ccc4ccc(=O)oc4c3)n2C)n(C)c1=O
→ ., i
Cn1c(CN2CCOCC2)nnc1SCC(=O)Nc1nccs1
→ >57, i
COc1ccc(CNC2CC(=O)N(C)C2=O)cc1 (stereo not given)
→ ., i
CCOC(=O)C1CCN(C(=O)CN2C(=O)C(CC)Oc3ccccc32)CC1 (stereo not given)
→ >57, i
C[N+]1(C)CCC[C@H]1C(=O)[O-]
→ ., i
CCCCn1c(SCC(=O)NCc2ccco2)nnc1-c1ccco1
→ >57, i
Cc1ccc(NC(=O)CN(c2ccccc2F)S(C)(=O)=O)cc1
→ >57, i
O=C(CCN1C(=O)c2ccccc2C1=O)Nc1ccccn1
→ >57, i
FC(F)(F)c1ccccc1-c1nccc(NCCN2CCOCC2)n1
→ ., i
Fc1ccc(Nc2ncnc3ccc(-c4ccoc4)cc23)cc1
→ ., i
CCOc1ccccc1N1CCN(C(=O)c2cccc(-c3ccc(O)cc3)c2)CC1
→ >57, i
CC(NC(=O)Nc1ccccc1)C(c1cccs1)N1CCOCC1 (stereo not given)
→ ., i
Cn1c(=O)[nH]c(=O)c2c1nc(CN1CCOCC1)n2Cc1ccccc1
→ >57, i
CCCn1nnnc1NCc1ccccc1OCc1cccs1
→ >57, i
O=C(NCc1ccco1)c1ccc2c(=O)n(Cc3ccco3)c(SCC(=O)N3CCCC3)nc2c1
→ >57, i
COc1ccc(OC)c(C2=NOC(C(=O)NCC3CCCO3)C2)c1 (stereo not given)
→ >57, i
COCCCNC(=O)Nc1ccc(F)cc1F
→ >57, i
CCn1cc(C(=O)NCCC2=CCCCC2)c(=O)c2cc(S(=O)(=O)N(C)C)ccc21
→ ., i
COCCn1c(=O)cnc2cnc(Nc3ccccc3)nc21
→ ., i
CS(=O)(=O)N1CCC2(CCCN(c3ccccn3)C2)CC1
→ ., i
COCc1cc(=O)n2[nH]c(C)nc2n1
→ >57, i
O=C(Nc1ccncc1)c1c(F)cccc1F
→ >57, i
CCCCn1c(CN2CCN(C)CC2)nc2ccccc21
→ >57, i
COC(=O)c1ccc(NS(=O)(=O)c2cc(C)ccc2OC)cc1
→ >57, i
CCCCc1ccc(-c2nc(-c3ccncc3)no2)cc1
→ ., i
COc1ccc(C2C3=C(CC(C)(C)CC3=O)Oc3ncn4nc(-c5cccnc5)nc4c32)cc1 (stereo not given)
→ >57, i
CCCc1ccc2c(N)c(C#N)sc2n1
→ ., i
COc1cccc(-c2nccc(-n3ccnc3)n2)c1
→ ., i
Cc1c(C(=O)NCc2cccs2)oc2ccc(S(=O)(=O)N3CCOCC3)cc12
→ >57, i
COc1ccc(CNC(=O)C2CCN(S(=O)(=O)c3cccc4cccnc34)CC2)cc1
→ ., i
COc1cccc(Nc2nnc(SCC(=O)N3CC(C)OC(C)C3)s2)c1 (stereo not given)
→ ., i
c1ccc2nc(N3CCOCC3)c(N3CCOCC3)nc2c1
→ >57, i
Fc1ccc(CN2CCCCCC2)c(F)c1
→ ., i
COC(=O)c1cc(Cc2ccc(N)c(C(=O)OC)c2)ccc1N
→ ., i
COc1ccc(S(=O)(=O)N2CCCC2C(=O)Nc2ccc(C(C)=O)cc2)cc1 (stereo not given)
→ ., i
O=C(OCc1cc(=O)n2c(n1)sc1ccccc12)c1ccc2c(=O)n3c(nc2c1)CCC3
→ >57, i
Cn1c(C(=O)N2CCC(C(=O)N3CCN(Cc4ccc5c(c4)OCO5)CC3)CC2)cc2sccc21
→ ., i
CCOC(=O)C(NC(=O)CC)(Nc1ccc(S(=O)(=O)Nc2cc(C)on2)cc1)C(F)(F)F (stereo not given)
→ >57, i
CCOC(=O)CSc1nnc2n(C3CCCCC3)c(=O)c3c4c(sc3n12)CCCC4
→ ?, .
Cn1c(C(=O)Nc2ccc3c(c2)OCO3)cc2c(=O)n(C)c3ccccc3c21
→ ., i
CCOC(=O)N1CCN(C(=O)c2cc(-n3cnnc3)ccc2Cl)CC1
→ >57, i
O=c1nc(N2CCCCC2)nc2n1CCO2
→ >57, i

(next part)
Screens in order: PK Bst, TsaE inh
COc1ccccc1C1NC(=O)NC(C)=C1C(=O)Nc1cccc(C)c1C (stereo not given)
→ ., i
O=C(c1ccco1)N1CCN(C(c2cccs2)c2nnnn2C2CCCCC2)CC1 (stereo not given)
→ >57, i
COc1cccc2c1C(=O)c1c(O)c3c(c(O)c1C2=O)C[C@](O)(C(=O)CO)C[C@H]3O[C@@H]1C[C@H](N)[C@H](O)[C@H](C)O1
→ ., i
O=C(c1ccccc1)c1c[nH]c2cc3c(cc2c1=O)OCCO3
→ >57, i
CN1C(=O)CSc2ccc(NC(=O)NCc3ccco3)cc21
→ >57, i
Cc1c(-n2cc(C(=O)c3ccccc3O)cc(C#N)c2=O)c(=O)n(-c2ccccc2)n1C
→ >57, i
Cc1cc(C)n(CC(=O)NCc2cc(-c3nn(C)c(=O)c4ccccc34)ccc2C)n1
→ >57, i
Cc1cccc(C)c1NC1=NC(C)(C)N=C(N)N1
→ >57, i
CC(C)Cn1c(N)c(C(=O)COC(=O)c2ccncc2)c(=O)n(C)c1=O
→ >57, i
Cc1nc(NCc2ccccc2)c2nc(-c3ccccc3)n(CC3CCN(C)CC3)c2n1
→ ., i
CCCc1nnc2n1N=C(c1ccc(-c3cc(Cl)ccc3Cl)o1)CS2
→ >57, i
C=CCNc1ncnc2c1[nH]c1ccc(C)cc12
→ ?, i
COc1ccc(-n2c(COc3ccccc3)nnc2SCC(N)=O)cc1
→ >57, i
Cc1ccc(S(=O)(=O)Cn2nnnc2CN2CCCC3(CCCCC3)C2)cc1
→ >57, i
CCN1CCN(c2cc(=O)n(-c3cc(Cl)ccc3C)c(=O)[nH]2)CC1
→ >57, i
CC(=O)c1c(C)[nH]c(C(=O)NCCC2=CCCCC2)c1C
→ >57, i
COC(=O)C(C(=O)Nc1ccc(OC)cc1)C1CCCCCC1 (stereo not given)
→ >57, i
c1ccc(OCc2nn3c(-c4ccncc4)nnc3s2)cc1
→ >57, i
[N-]=[N+]=NC[C@@H]1O[C@@H](n2cnc3c(N)ncnc32)[C@@H]2O[C@@H]21
→ ., i
O=C(Nc1cccnc1)c1cccc(NC(=O)c2ccco2)c1
→ ., i

3 entries from above, ordered by molar mass, rising:
Screens in order: PK Bst, TsaE inh
O=C(Nc1cccnc1)c1cccc(NC(=O)c2ccco2)c1
→ ., i
CN1C(=O)CSc2ccc(NC(=O)NCc3ccco3)cc21
→ >57, i
COc1cccc2c1C(=O)c1c(O)c3c(c(O)c1C2=O)C[C@](O)(C(=O)CO)C[C@H]3O[C@@H]1C[C@H](N)[C@H](O)[C@H](C)O1
→ ., i

Other entries follow:
Screens in order: PK Bst, TsaE inh
O=C(CCNC(=O)c1ccc(Br)o1)NCc1ccccc1Cl
→ >57, i
CCn1c(=O)c(C(=O)CN2CCCc3ccccc32)c(N)n(Cc2ccccc2)c1=O
→ >57, i
Cc1nn(-c2ccccc2)c2[nH]c(C(F)(F)F)cc(=O)c12
→ >57, i
O=C(O)c1oc2ccccc2c1-n1cccc1
→ >57, i
COc1ccccc1OCCOc1ccc(/C=N/n2cnnc2)cc1
→ ., i
COc1cccc(Cn2c(Oc3cccc(C)c3)nc3c2c(=O)n(C)c(=O)n3C)c1
→ >57, i
Cc1c(C(=O)N2CCc3ccccc3C2)sc2nc(-c3ccccc3)cn12
→ >57, i
C[C@@]12CCC(=O)C=C1CC[C@H]1[C@H]3CC[C@](O)(C(=O)CO)[C@]3(C)CC(=O)[C@@H]12
→ ., i
Oc1ccccc1CN1CCCN(Cc2ccccc2O)C1
→ >57, i
FC(F)(F)c1nnc2ccc(N3CCCCCC3)nn12
→ >57, i
CCOC(=O)C1CCCN(c2c(N3CCN(c4ccccn4)CC3)c(=O)c2=O)C1 (stereo not given)
→ ., i
CN(Cc1ccccc1)Cc1nc2c(c(=O)n(C)c(=O)n2C)n1Cc1ccc(F)cc1
→ >57, i
CCCCCCOc1ccc(C(CC(=O)O)C(N)=O)cc1 (stereo not given)
→ >57, i
CC(O)(C#CCN1CCOCC1)c1ccccc1 (stereo not given)
→ >25.6, .
COc1cccc(C(=O)N2CCN(c3ncccn3)CC2)c1
→ >57, i
CC(=O)c1ccc(O)c(CN(C2CCCCC2)C2CCCCC2)c1O
→ ., i
Cc1ccc(S(=O)(=O)N[C@@H](C)C(=O)N2CCC(C(=O)N3CCC[C@H]3C(=O)O)CC2)cc1
→ >57, i
O=C1CN(Cc2ccccc2)C(=NCc2ccco2)S1
→ >57, i
O=C(Nc1ccccc1)N(CCCN1CCOCC1)Cc1cc2cc3c(cc2[nH]c1=O)OCCO3
→ >57, i
CC(=O)N1[C@H](C)C=C[C@]1(Cc1ccccc1)C(=O)NCc1ccccn1
→ ., i
Cc1cc2nc(NC3=NCN(CCCN4CCOCC4)CN3)nc(C)c2cc1C
→ >57, i
COc1ccc(COn2c(=O)c(C)[n+]([O-])c3ccccc32)cc1OC
→ >57, i
COc1cccc(CNc2ccc3c(c2)ncn3C(C)C)c1OC
→ ., i
COc1cccc(NS(=O)(=O)c2ccc(NC(C)=O)cc2)c1
→ >57, i
O=C(NCCCN1CCN(c2ccccc2F)CC1)C1CCN(S(=O)(=O)N2CCOCC2)CC1
→ >57, i
CC(C)Cc1nc2oc3c(=O)[nH]cnc3c2c2c1CCC2
→ >57, i
CCc1n[nH]c2c1/C(=N\O)CC(c1ccccc1)C2 (stereo not given)
→ >57, i
O=C(O)CCC(=O)NCC1OCCc2ccccc21 (stereo not given)
→ >57, i
CC1CC2(CC(C)(C(=O)CSc3nc4ccccc4s3)OC2=O)C(=O)O1 (stereo not given)
→ i, i
CC(C)(C)NC(=O)NC(=O)COC(=O)CNC(=O)c1cccc(F)c1
→ >57, i
Cc1noc(NS(=O)(=O)c2ccc(N)cc2)c1C
→ >57&>11.4, i
CC(=O)c1cccc(NC(=O)CN(c2cccc(F)c2)S(C)(=O)=O)c1
→ >57, i
O=C(CCCN1C(=O)c2ccccc2C1=O)Nc1ccccn1
→ >57, i
Cc1nn(C(=O)c2ccccc2)c2c1C(=O)CC(C)(C)C2
→ >57, i
CN(C)Cc1ccccc1-c1ccc2ncnc(N(C)Cc3ccco3)c2c1
→ ., i
CN(C)c1oc(-c2ccccc2F)nc1C#N
→ ., i
COC(=O)c1cc(-c2cccc(OC)c2)on1
→ ., i
N#Cc1cnn(CC2CCCCC2)c1N
→ ., i
COc1ccc(CN2CCN(S(=O)(=O)c3ccc(F)cc3)CC2)cc1OC
→ >57, i
CCOC(=O)C1C(=O)CC(C)(O)C(C(=O)OCC)C1c1ccc(Br)o1 (stereo not given)
→ >57, i

For convenience, some entries already given.
Screens in order: PK Bst, TsaE inh
Cc1cc2nc(NC3=NCN(CCCN4CCOCC4)CN3)nc(C)c2cc1C
→ >57, i
COc1ccc(COn2c(=O)c(C)[n+]([O-])c3ccccc32)cc1OC
→ >57, i
COc1cccc(CNc2ccc3c(c2)ncn3C(C)C)c1OC
→ ., i
COc1cccc(NS(=O)(=O)c2ccc(NC(C)=O)cc2)c1
→ >57, i
O=C(NCCCN1CCN(c2ccccc2F)CC1)C1CCN(S(=O)(=O)N2CCOCC2)CC1
→ >57, i
CC(C)Cc1nc2oc3c(=O)[nH]cnc3c2c2c1CCC2
→ >57, i

New compounds follow.
Screens in order: PK Bst, TsaE inh
CCCCCCn1c(CN2CCN(C(=O)c3ccco3)CC2)nc2c1c(=O)n(C)c(=O)n2C
→ ., i
Cc1nnc(SCC(N)=O)n1CC1CCCO1 (stereo not given)
→ >57, i
C[Si](C)(c1ccc(C(=O)O)cc1)c1ccc(C(=O)O)cc1
→ ., i
Cc1ccc(-c2csc(NC(=O)c3ccno3)n2)cc1
→ i, i
O=C(Cn1cnc2c(cnn2-c2ccc(F)cc2)c1=O)NCc1ccco1
→ >57, i
O=C(c1cccs1)N1CCN(S(=O)(=O)N2CCOCC2)CC1
→ >57, i
Cn1cc(SCC(=O)NCc2ccc3c(c2)OCO3)c2ccccc21
→ ., i
